# TRPML1 inh: qHTS for Inhibitors of the Human Mucolipin Transient Receptor Potential 1 (TRPML1); TRPML1-inducible cells, Ca2+ dye fluorescence, FDSS; hits give low values; inhibition of EC80 agonist-evoked calcium signal; activity change, negative = inhibition, % (no concentration beside the values); actives 0.02% (n = 390,000); AID 624415, 2012; in the data active means activity change below about -50%; inconclusive means about -30% to -50%; inactive means above about -30%;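 note: stimulus is agonist 54-4 at its EC80 concentration; % is set by controls: 0 for no effect and ±100 for the full control effect; compound concentration not given in the record; the text of the record puts the active cut at -80%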
# Target sequence (Q9GZU1 whole entry, looked up): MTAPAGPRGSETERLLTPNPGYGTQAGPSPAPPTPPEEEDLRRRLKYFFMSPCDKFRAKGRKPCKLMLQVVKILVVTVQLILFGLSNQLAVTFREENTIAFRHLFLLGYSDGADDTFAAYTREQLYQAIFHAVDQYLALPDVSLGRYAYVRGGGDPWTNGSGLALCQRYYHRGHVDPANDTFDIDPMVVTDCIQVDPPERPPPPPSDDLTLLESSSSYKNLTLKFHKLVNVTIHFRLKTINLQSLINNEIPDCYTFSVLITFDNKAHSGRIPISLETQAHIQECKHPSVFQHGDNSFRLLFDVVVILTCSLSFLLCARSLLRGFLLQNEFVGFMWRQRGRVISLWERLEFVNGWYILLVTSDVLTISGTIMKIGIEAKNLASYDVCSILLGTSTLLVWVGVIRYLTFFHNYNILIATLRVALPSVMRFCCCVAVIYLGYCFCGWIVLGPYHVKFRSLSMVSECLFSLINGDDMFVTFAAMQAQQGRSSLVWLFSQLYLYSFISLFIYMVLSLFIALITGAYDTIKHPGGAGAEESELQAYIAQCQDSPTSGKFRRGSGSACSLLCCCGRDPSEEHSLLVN
#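 Tet-induced TRPML1-DL cells loaded with Ca8 no-wash calcium dye were read kinetically on FDSS. Compound addition was followed by EC80 agonist 54-4 (4 uM final); inhibition was read over 110 s.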
# Menin MLL FP FL: qHTS Assay for Inhibitors Targeting the Menin-MLL Interaction in MLL Related Leukemias: Competition With Fluorescein Labeled MLL-derived Peptide; Fluorescence polarization, fluorescein-MLL peptide displacement from menin; FP activity change, % at 61.4 µM; 290,000 tested, under 10 active; inconclusive = falling polarisation curve, or a change in total fluorescence; inactive = total fluorescence flat and polarisation flat or rising; no compound was filed as active; the % refers to the polarisation; negative = inhibition;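 note: % of control where 0% means no effect; inhibitors lower the polarisation; unlabelled MLL peptide was the positive control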
# TRPV1 PAM: HTS Assay for Compounds that Act as Potentiators of the Vanilloid Receptor 1. TRPV1-expressing cells, Fluo-8 calcium influx, capsaicin EC20 potentiation; host cell line not named in the record; control for the full effect not named in the record. potentiation, % at 8.33 µM. actives 0.02% (n = 320,000); active means potentiation above 80%; inconclusive means 30% to 80%; inactive means below 30%; note: 0% is about no effect
#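 Fluo-8 calcium influx in TRPV1-expressing cells, kinetic read (ex 480/em 520 nm). Compound added and read 3 min for agonist activity, followed by capsaicin at EC20 final and 2 min further read for enhancement.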
# ClpP mod: qHTS Assay for Activators of ClpP; actives 1.9% (n = 340,000); purified B. subtilis ClpP, FRET peptide cleavage, 20 min; ATP-dependent Clp protease proteolytic subunit (Bacillus subtilis (strain 168)), P80244; Potency, µM (series often up to 57.5 µM), for the others: at the highest dose activity change, negative = active; active = well fitted falling curve with a large enough effect; inconclusive = small, poorly fitted or top-dose-only effect; inactive = no such curve, though single readings can be large or run the other way; note: potency is the fitted concentration of half-maximal effect; the source files actives as falling curves though it sought activators and does not explain the sign; nearly all actives have a fitted effect of over 65% in size; many hits overshoot -100%
# Target sequence (P80244 whole entry, looked up): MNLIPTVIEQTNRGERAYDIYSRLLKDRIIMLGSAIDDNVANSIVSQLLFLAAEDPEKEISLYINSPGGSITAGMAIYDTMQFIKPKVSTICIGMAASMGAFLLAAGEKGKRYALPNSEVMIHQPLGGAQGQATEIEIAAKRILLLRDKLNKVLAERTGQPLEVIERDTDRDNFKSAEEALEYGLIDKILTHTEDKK
#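 Purified B. subtilis ClpP, 10 microg/mL final in Tris/HCl pH8 with KCl, BSA, glycerol and Tween-20, cleaved an Abz/nitrotyrosine-quenched decapeptide. Fluorescence (ex 320, em 430) was read at 0 and 20 min at room temperature. Delta was normalized to 5.8 microM ADEP and DMSO/no-enzyme controls.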
# TRPML1 ag: qHTS for Agonists of the Human Mucolipin Transient Receptor Potential 1 (TRPML1); AID 624414, 2012; activation, % (concentration not given with the values); actives 0.12% (n = 410,000); TRPML1-expressing cells, Ca2+ dye fluorescence, FDSS; host cell line not named in the record; reference of the full effect not given here; in the data active = activation above about 50%; inconclusive = about 30% to 50%; inactive = below about 30%; note: 0% is about no effect; the text of the record puts the active cut at 80%
#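 Cells: TRPML1-DL, 1X Tet inducer, ~16 h at 37 degrees C/5% CO2. Dye: ABD Ca8 no-wash + quencher, 45-90 min RT. Read: 10 s baseline, compound add, 110 s agonist phase; 54-4 EC80 (4uM final), 110 s antagonist phase.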
# Sfp inh: qHTS Assay for Inhibitors of Bacillus subtilis Sfp phosphopantetheinyl transferase (PPTase); actives 3.5% (n = 310,000); Potency, µM, inactives show max response, negative = inhibition, hits mostly inhibitors; Biochemical Sfp PPTase activity, qHTS; 4'-phosphopantetheinyl transferase ffp (Bacillus subtilis), Q9F4F7; active = well fitted inhibition curve with a large enough effect; inconclusive = small, poorly fitted or top-dose-only effect, or another doubt; inactive = no such curve, though single readings can be large or run the other way;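 note: the enzyme is Sfp with the accession as filed and its product quenches rhodamine fluorescence; potency is the fitted concentration of half-maximal effect; 0% = enzyme reaction without inhibitor and -100% = no enzyme wells; top concentration of the series not given in the record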
#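 After 15 min at room temperature with compound, 15 nM Sfp received 5 uM rhodamine-CoA plus 12.5 uM BHQ-2-ybbR (50 mM Hepes pH 7.6, 10 mM MgCl2). Rate came from the fluorescence difference over 30 min, ex 525/em 598 nm.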
# PINK1 expr mod: A Quantitative High throughput Screen to Identify Chemical Modulators of PINK1 Expression; PINK1 immunofluorescence, high-content cytometry, 24 h; actives 0.2% (n = 410,000); Potency, µM (highest dose often 76.6 µM), for inactives: at the highest dose activation (PINK1 increase), usual class: activators; active = well fitted activation curve with a large enough effect; inconclusive = small, poorly fitted or top-dose-only effect; inactive = flat fitted curve, though single readings scatter; cell line not stated here;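 note: potency is the fitted concentration of half-maximal effect; % of control where 0% means no effect; nearly all actives have a fitted effect of over 65% in size; a mitochondrial uncoupler was the plate control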
#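 Measures PINK1 amount and localization on or inside mitochondria by immunofluorescence. Stable cells get compounds at 5 concentrations for 24 hours before fixation and staining; CCCP controls included.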
# * hit, by the source's call; ? = inconclusive; · = not tested or not shown; & = joins results of further samples; [ ] = another dose, or the depositor's remark.
SMILES,TRPML1 inh,Menin MLL FP FL,TRPV1 PAM,ClpP mod,TRPML1 ag,Sfp inh,PINK1 expr mod
CN(C(=O)CCc1ccccc1)c1nnc(-c2ccncc2)s1,26,-0.5,12,·,-0.6,11%,-0.8%
CC(=O)Nc1cccc(Oc2ncnc3scc(-c4ccc(C)cc4)c23)c1,34,5.5,10,-1.0%,6.5,-19%,-1.2%
CN1c2ccccc2C(C)(C)C12CC(c1cccc(S(=O)(=O)N3CCCC3)c1)=NO2 (configuration not stated),0,7.7,3,-1.7%,0.1,-3%,5.4%
C=CCn1c2ccccc2c(=O)c2cc(C#Cc3ccccn3)ccc21,-5,·,-3,3.7%,0.5,·,-0.8%
Cc1nc2ccc(C(=O)N(C)Cc3ccco3)cn2c1N(C)C(=O)CCc1ccccc1,·,·,·,-12%,-0.5,·,2.9%
CCC(=O)C1CCCN(C(=O)c2ccc(OC)c(OC3CCN(C(C)=O)CC3)c2)C1 (configuration not stated),12,·,3,-0.3%,-0.3,13%,1.2%
O=C(N/N=C/c1ccc(C(F)(F)F)cc1)c1ccc(O)cc1,18,3.2,12,·,2.3,7%,2.5%
Cc1ccc(C)c(N/C(N)=N/c2nc(C)cc(C)n2)c1,4,2.6,-8,32µM*,?,-9%,15%
COC(=O)/C=C1\SC(=NC(=O)c2cccc(Cl)c2)NC1=O,-22,0.2,-4,?,0.1,45µM*,3.1%
COc1cc2cc(C(=O)N(C)Cc3ccccc3)[nH]c2cc1OC,·,1.3,-9,-27%,·,21%,5.9%
CN(c1ccc(C(=O)N2CCCCC2)cc1)S(=O)(=O)c1ccccc1,9,0.5,-18,-3.7%,0.2,3%,0.3%
COc1cc(C(C[N+](=O)[O-])c2c(C)[nH]c3ccccc23)ccc1O (configuration not stated),5,4.3,4,-5.8%,-0.3,1%,-1.0%
c1ccc(CN2CCN(C(c3ccccc3)c3nnnn3Cc3ccccc3)CC2)cc1 (configuration not stated),-11,0.8,-11,-5.3%,2.8,-1%,-1.7%
COc1cccc(CSc2nnc(CSc3nc4nc(C)cc(C)n4n3)s2)c1,-19,8.3,-9,0.6%,1.4,-5%,-0.5%[38.3 µM]
CC(=O)c1ccccc1NC(=O)CCN1C(=O)C2CCCCC2C1=O (configuration not stated),-11,·,·,-2.2%,-0.3,·,-1.2%
CCCCCNC(=O)C1CCC(Cn2c(=O)c3sccc3n(CC(=O)NCc3cccc(OC)c3OC)c2=O)CC1 (configuration not stated),2,·,·,-1.2%,-0.6,·,-0.2%
CCn1ccc2cc(S(=O)(=O)N3CCC(C(=O)NCC(C)c4ccccc4)CC3)ccc21 (configuration not stated),-9,·,·,-8.5%,1.5,·,0.0%
CCCS(=O)(=O)NCCc1csc2nc(-c3ccc(OC)cc3)nn12,-16,·,·,1.3%,1.4,·,-0.9%
Cc1cc(O)c(C(=O)/C=C/c2ccccc2Br)c(=O)o1,3,?,11,·,-0.1,2%,-0.4%
O=C(CN1CCN(Cc2ccc3c(c2)OCO3)CC1)Nc1ccc(N2CCOCC2)cc1,9,2.4,0,1.2%,-1.6,-6%,-0.4%
N#CC[C@H](Cc1ccccc1)N1CCN(Cc2ccccc2)CCC1=O,14,0.8,-19,1.1%&-0.1%,-0.3&-0.2,12%,1.2%
Nc1ccc(N2N=C(N3CCCC3)CC2=O)cc1,10,·,·,-0.2%,-0.7,·,2.2%
CCOc1ccccc1CN1C(=O)c2ccccc2C1C(=O)NC1CCCCCC1 (configuration not stated),22,·,·,-1.2%,5.4,·,8.2%
Cc1ccc(C(=O)Nc2ccccc2N2CCCC2)s1,-3,·,-3,-13%,0.9,·,0.3%
CCOc1cc(Br)c(C(=O)O)cc1OC,9,2.8,5,1.2%,1.1,4%,-0.5%[38.3 µM]
Cc1csc(=O)n1CC(=O)OCC(=O)c1c(N)n(CC(C)C)c(=O)n(C)c1=O,4,·,1,·,-0.9,·,1.4%
CCCN1CCC(NC(=O)C2CC=CCC2C(=O)O)CC1 (configuration not stated),24,·,-11,-0.3%,0.5,8%,-0.6%
CC(C)C[C@H]1CN(CCCC[C@H]2CNC(=O)C(=O)N2CC2CCCCC2)C(=O)C(=O)N1CCC1CCCCC1,·,·,·,2.2%,-0.7,·,0.8%
O=C(CSc1nc2ccccc2[nH]1)N1CCN(S(=O)(=O)c2ccc(Cl)cc2)CC1,-10,8.7,8,0.4%,-0.5,-23%,0.1%
Cc1cc(C)nc(SCC(=O)NC2CCCC2)n1,8,-3.4,1,·,-0.9,12%,1.4%
COC(=O)c1sccc1NC(=S)N1C(C)CCCC1C (configuration not stated),?,0.2,-1,-3.8%,0.7,-3%,0.3%
Cc1ccccc1NC(=S)NCCc1ccc(S(N)(=O)=O)cc1,32,1.2,-4,1.2%,-0.3,5%,-0.1%
CCOc1ccc(N(CC(=O)Nc2ccc(OC)cc2)S(=O)(=O)c2c(C)noc2C)cc1,2,1.3,·,0.5%,0.1,35%[activator],0.7%
CC(=O)c1ccc2noc(-c3ccc(F)cc3)c2c1,-6,?,8,·,1.4,-13%,-0.1%
CC(C)NC(=O)CN1CCN(C(c2ccnc3ccccc23)c2nnnn2-c2ccc3c(c2)OCCO3)CC1 (configuration not stated),·,·,·,-2.1%,-0.6,·,-0.3%
O=C(CSc1nnc(CNC(=O)c2cccs2)o1)NCCc1ccccc1,-28,2.7,3,0.7%,-0.2,2%,0.8%
CCOc1cccc(CC(=O)N2CCc3c([nH]c4ccccc34)C2c2ccc(OC)cc2)c1OCC (configuration not stated),1,·,·,-6.6%,0.3,·,0.2%
CCOc1cc2[nH]c(=O)n(CCCCC(=O)N3CCN(c4ccccc4)CC3)c(=O)c2cc1OCC,3,·,·,-11%,-0.2,·,2.1%
O=C(CSc1nncn1-c1ccccc1F)NC1CCCCC1,79,·,16,-0.9%,0.3,·,0.8%
Cc1cc(C(=O)COC(=O)c2nc3nccc(C)n3n2)c(C)n1CC1CCCO1 (configuration not stated),-2,-5.4,7,·,0.2,-5%,1.6%
Cc1cccc(NC(=O)c2cc3n(n2)C(C(F)(F)F)CC(C2CC2)N3)c1C (configuration not stated),-17,1.0,6,-2.3%,1.0,3%,1.4%
COCc1cc(C)nc2sc(C(=O)Nc3ccc(C(=O)OC)cc3)c(N)c12,11,-9.6,-20,-4.4%,0.8,4%,?
COC(=O)Cn1c(=NC(=O)c2cc(OC)cc(OC)c2)sc2cc(OC)ccc21,15,2.6,4,28µM*,-0.6,?,9.0%
Cc1ccc2nc(-c3ccc(NC(=O)COC(=O)c4ccco4)cc3)sc2c1,-4,2.1,-1,7.1µM*,0.2,6%,3.9%
Cc1cc(C)c(NC(=O)CSc2nc3ccccc3c3nc(-c4ccccc4)nn23)c(C)c1,30,·,·,0.0%,0.7,·,?
CSc1ccc(/C=N/NC(=O)c2cccc(O)c2)cc1,-8,1.7,13,-2.0%,-0.3,10%,5.0%
Cc1cc(Cl)ccc1NC(=O)CN1C(=O)CSc2ccc(S(=O)(=O)N(C)C)cc21,6,·,·,-0.2%,-1.2,·,1.8%
Cc1ccc2c(c1)nnn2C1CCN(CC(=O)Nc2ccccc2N2CCOCC2)CC1,-20,-0.3,6,-8.5%,21,-1%,?
CSCCC1NC(=O)N(CC(=O)Nc2ccc(-c3ccccc3)cc2)C1=O (configuration not stated),·,0.0,6,-3.6%,·,3%,1.9%
COc1ccc(OCc2nn3c(-c4ccco4)nnc3s2)cc1,-11,-0.3,-7,-0.5%,-0.8,-6%,-0.7%

# An excerpt from above in order of molar mass, largest number first:
SMILES,TRPML1 inh,Menin MLL FP FL,TRPV1 PAM,ClpP mod,TRPML1 ag,Sfp inh,PINK1 expr mod
Cc1cc(Cl)ccc1NC(=O)CN1C(=O)CSc2ccc(S(=O)(=O)N(C)C)cc21,6,·,·,-0.2%,-1.2,·,1.8%
COC(=O)Cn1c(=NC(=O)c2cc(OC)cc(OC)c2)sc2cc(OC)ccc21,15,2.6,4,28µM*,-0.6,?,9.0%
COCc1cc(C)nc2sc(C(=O)Nc3ccc(C(=O)OC)cc3)c(N)c12,11,-9.6,-20,-4.4%,0.8,4%,?

# The results go on:
SMILES,TRPML1 inh,Menin MLL FP FL,TRPV1 PAM,ClpP mod,TRPML1 ag,Sfp inh,PINK1 expr mod
COCCNC(=O)Cn1cc(C(=S)N2CCOCC2)c2ccccc21,-8,-8.3,-10,·,-0.6,32µM*,-0.1%
CCCCn1nnnc1C1(C)CCC(=O)N1CCc1ccccc1F (configuration not stated),·,·,·,-1.7%,0.8,·,1.1%
COCc1cccc(-c2csc(C(NC(C)=O)c3ccc(F)c(F)c3)n2)c1 (configuration not stated),·,·,·,-3.6%,-0.2,·,0.4%
CCOc1ccc2[nH]c(C(=O)N/N=C/c3cc(OC)c(OC)c(OC)c3)cc2c1,-3,-4.6,-8,·,-0.8,-11%,5.7%
Cc1ccc(NCc2nnc(SCC(=O)NCc3ccco3)n2CC2CCCO2)cc1Cl (configuration not stated),-8,3.1,-8,0.1%,-0.5,-11%,0.0%
O=C1NC2(c3ccccc3)NC(=O)NC2(c2ccccc2)N1 (configuration not stated),4,·,·,-0.4%,-0.4,·,-0.4%
CCCCN(c1ccccc1)S(=O)(=O)c1cccc(C(=O)Nc2c(C)n(C)n(-c3ccccc3)c2=O)c1,2,·,·,-4.5%,0.3,·,-1.3%
CCOC(=O)Cn1c(=O)n(Cc2ccc(C)cc2)c(=O)c2cccnc21,13,-1.9,-5,-6.3%,1.2,10%,5.5%
CC(C)CNC(=O)CSc1ccc(Cl)cc1,5,3.0,-20,25µM*,-0.2,-11%,0.2%
Cc1onc(-c2ccccc2)c1C(=O)N/N=C/c1cn(C)c2ccccc12,16,-16,16,·,0.7,3%,0.0%
Cc1ccc(S(=O)(=O)N2CCC(=O)N(CCOCc3cccc(C(F)(F)F)c3)CC2)cc1,1,-3.4,-22,-0.1%,-0.5,11%,-0.9%
